# Bioassay records deposited in PubChem by ICCB-Longwood Screening Facility, Harvard Medical School.
# BasE inh – blocks the Acinetobacter baumannii siderophore enzyme BasE; hit rate 0.1% among 84,000; inhibition, % (test concentration not listed); AID 485350; purified BasE, fluorescence polarization binding displacement;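 active means both replicates above 25% with normal brightness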;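 further: 0% = negative plate control signal and 100% = positive plate control signal; stock transfer was 100 nL into about 30 µL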
# KSHV LANA nucl – LANA-nucleosome interaction inhibition. FITC-LANA1-23 / chicken nucleosome fluorescence polarization; hits give low values. hit rate 0.3% among 51,000. AID 720717. z-score (test concentration not listed);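 active means both repeat wells score below -2 in polarization z-score versus plate sample wells, excluding overly bright wells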;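 further: 100 nL library stock added to about 30 µL; numbers are from one replicate; some results filed as inactive read as strong as hits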
#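 Material: Purified chicken nucleosomes with FITC-labelled LANA N-terminal peptide (1-23) | Reagent: 50 nM FITC-LANA1-23 probe | Medium: TEN-BT buffer, pH 7.5 | Times: 10–45 min incubation at room temperature | Detection: Fluorescence polarization | Replication: Duplicates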
# The depositor's hits bear a star; x = no result given; & = joins results of further samples. Not all compounds are listed; the hit share may differ from the screen's.
molecule	BasE inh	KSHV LANA nucl
CC(C)Cn1cnc2c1c(=O)n(CC(=O)N1CCc3ccccc31)c(=O)n2Cc1ccccc1	2.0	x
CCOC(=O)c1c(/N=C/c2ccccc2O)sc(C)c1C	2.0	x
S=C(c1ccc(-c2ccccc2)o1)N1CCN(c2ccccc2)CC1	-0.7	x
CC(C)OC(=O)c1cc2c(ccn2-c2ccc(F)cc2)n1CCC#N	0.9	0.793
O=C1CS/C(=N\S(=O)(=O)c2ccccc2)N1Cc1ccccc1	1.6	x
COc1ccc(-c2noc(CN(C)C(=O)Cc3ccc(OC)c(OC)c3)n2)cc1	-0.2	2.31
O=C(Cc1c(F)cccc1Cl)OCN1C(=O)c2ccccc2C1=O	0.7	x
O=C(NCCCN1CCCC1=O)c1ccccc1NS(=O)(=O)c1ccc(F)cc1	0.7	x
Cc1ccc(-c2nc3cccc(C)n3c2Nc2ccc3c(c2)OCCO3)o1	-0.2	-0.711
CCOc1ccc(C(N)CC(=O)OC)cc1 (configuration not stated)	1.3	x
CC(C)(C)c1ccc(N=Cc2ccccc2O)cc1	-0.6	x
CC1CCN(C(=O)Cn2c(SCC(=O)NC(C)(C)C)nc3ccccc32)CC1	-0.9	0.909
OC(CNCc1ccc(Cl)cc1Cl)Cn1c(-c2ccc(F)cc2)cc2ccccc21 (configuration not stated)	3.0	x
Cc1cc(C(=O)COc2ccc(C#N)cc2)c(C)n1CC1CCCO1 (configuration not stated)	0.0	x
COc1ccc2c(c1)cc(C(=O)O)n2C	2.9	0.502
Cc1cc(C)cc(C(=O)Nc2ccc(N3CCN(S(C)(=O)=O)CC3)cc2)c1	-0.7	0.156
C=CCn1c(CC(C)C)nnc1SCC(=O)Nc1ccc(Cl)cc1	-0.7	-0.188
O=C(c1cccs1)n1cnc2ccccc21	-2.3	0.255
COc1ccc(NS(=O)(=O)c2ccc3oc(=O)ccc3c2)cc1	0.0	-1.49
CNc1cc(=O)n(C)c(=O)[nH]1	1.5	0.229

# (listing goes on)
molecule	BasE inh	KSHV LANA nucl
Cc1cc(C)cc(NC(=O)NCc2c(-c3ccccc3)noc2C)c1	0.4	-0.115
Cc1nnc(SC(C)C(=O)N2CCc3ccccc3C2)n(N)c1=O (configuration not stated)	0.3	x
c1cnc2cc(CNCc3ccc4c(c3)OCO4)ccc2n1	2.4	-1.47
Cc1cc2c(c(=O)n1Cc1ccccc1)C(c1ccncc1)C(C#N)=C(N)O2 (configuration not stated)	1.5	-0.508
Cc1ccc(N2CCN(CC(N)=O)CC2C)cc1 (configuration not stated)	-0.3	-1.46
CCOC(=O)c1c(NC(=O)C(C)Sc2nnc(C)s2)sc2c1CCCC2 (configuration not stated)	1.5	x
N#CC(NC(=S)Nc1cccc(Cl)c1)c1ccccc1 (configuration not stated)	1.9	x
CN1C(N)=NC(=O)/C1=C/c1ccc(-c2ccc(Br)cc2)o1	-0.6	0.695
COC(=O)CSc1nc2c3ccccc3ncn2n1	1.0	x
Cc1cc(N2CCCC2)ccc1NC(=O)CNC(=O)C1CCCCC1	1.0	x
CC(Oc1ccccc1)c1ccnc2ncnn12 (configuration not stated)	x	1.01
Fc1ccc(CN(Cc2ccco2)Cc2nnnn2CCc2ccccc2)cc1	-1.5	-0.289
Cc1oc(C(C)(C)C)cc1C(=O)NCc1csc(-c2cccs2)n1	1.5	x
COc1cc2c(cc1OC)-c1c(C#N)c(-c3ccc(C)cc3)c(C(=O)c3cccs3)n1CC2	1.3	x
COc1ccc(S(=O)(=O)C(F)(F)F)cc1S(=O)(=O)C(F)(F)F	-0.3	-0.0905
N/N=C(\CCC(=O)O)c1ccccc1	1.5	-0.389
CC12CCC(=O)N1C(C(=O)OCC(=O)c1ccc(Cl)s1)CS2 (configuration not stated)	4.2	x
Cc1ccc(C2=Nc3ccccc3N(CC(=O)Nc3ccc4c(c3)OCO4)C(=O)C2)cc1	3.5	-1.02
O=C(NCC(=O)N1CCN(c2ccccc2)CC1)c1ccc(Br)cc1	1.1	-0.156
Cc1cc(C)nc(N2Cc3ccccc3C2=NC(=O)c2ccc3c(c2)OCCO3)n1	0.7	x

# Entries from the list above that have a COOH group (2):
molecule	BasE inh	KSHV LANA nucl
COc1ccc2c(c1)cc(C(=O)O)n2C	2.9	0.502
N/N=C(\CCC(=O)O)c1ccccc1	1.5	-0.389

# Carrying on:
molecule	BasE inh	KSHV LANA nucl
O=C(NCCN1C(=O)S/C(=C\c2cccnc2)C1=O)c1cccc(S(=O)(=O)N2CCN(c3ccc(F)cc3)CC2)c1	0.4	x
COC(=O)c1ccc(C)c(NC(=O)C2CC(=O)N(Cc3ccc(C)cc3)C2)c1 (configuration not stated)	5.3	x
NC1CCN(c2c(F)cc3c(=O)c(C(=O)O)cn(C4CC4)c3c2Cl)C1 (configuration not stated)	x	0.444
Cc1ccc(C(=O)OCN2C(=O)c3ccccc3C2=O)cc1	2.2	x
CN1CCN(S(=O)(=O)c2ccc(NC(=S)NC(=O)C3CCCC3)cc2)CC1	-1.1	1.45
O=C(OCC(=O)N1CCc2ccccc21)c1ccc(S(=O)(=O)NCc2ccco2)cc1	0.1	x
COC(=O)c1c(O)c[nH]c1C	-0.4	-1.34
Cc1cc(C)c(C#N)c(OCc2cccc(C(F)(F)F)c2)n1	x	-0.0505
O=C(O)C1CCCN(c2nn3cc(-c4ccc(F)cc4)nc3s2)C1 (configuration not stated)	2.0	-1.45
CC(=O)Nc1ccc(S(=O)(=O)NC(CC(=O)O)C(C)C)cc1 (configuration not stated)	2.1	0.21
O=C(c1ccc(Br)o1)N(c1ccccn1)C1CCCCC1	-0.6	x
Cc1cc(C(C)C)n2c(nc3ccccc32)c1C#N	-3.0	x
CCC1CCCCN1C(=O)Cn1c(SCc2ccc(OC)cc2)nc2ccncc21 (configuration not stated)	-0.9	-1.26
CCOC(=O)c1sc(NC2CCCC2)nc1C	0.5	x
O=C(O)CCN1C(=O)CSC1=O	2.0	-0.149
CC1=NNc2nc3c(c(=O)[nH]c(=O)n3C)n2C1	3.1	-1.25
COc1ccccc1OCCSc1nc2ncnc(N)c2[nH]1	-2.0	0.644
CCN(CC)C(=O)c1noc2c1COc1ccccc1-2	1.6	-1.27
CN(C)C=Nc1ccc(C(=O)/C=C/N(C)C)cc1	1.2	x
CCCC(CCC)C(=O)Nc1ccccc1	6.2	0.0085

# 2 entries drawn at random from the list so far:
molecule	BasE inh	KSHV LANA nucl
O=C(c1ccc(Br)o1)N(c1ccccn1)C1CCCCC1	-0.6	x
NC1CCN(c2c(F)cc3c(=O)c(C(=O)O)cn(C4CC4)c3c2Cl)C1 (configuration not stated)	x	0.444

# (more compounds)
molecule	BasE inh	KSHV LANA nucl
N#CCS(=O)(=O)c1ccc2c(c1)OCCO2	-0.3	0.75
CC(C)CCSc1nc(N)c(C#N)cc1C#N	-2.2	-0.657
O=C(NC1CCCCC1)C(c1ccc(O)c(O)c1)N(C(=O)Cn1nnc2ccccc21)C1CCCCC1 (configuration not stated)	3.5	-0.414
CN(CC(=O)NCc1ccccc1)Cc1nc2ccccc2c(=O)[nH]1	2.4	x
CCOc1ccc(CCNC(=O)CN2Cc3ccccc3C2=O)cc1OCC	0.6	-0.112
CCSc1nnc(SCC(=O)NCc2ccc(OC)c(C(=O)O)c2)s1	-0.4	x
O=C(OCc1nc2ccccc2s1)c1n[nH]c(=O)c2ccccc12	3.4	x
O=C(NNc1ccccc1C(F)(F)F)c1ccno1	-1.0	0.172
COC(=O)c1cc(OC)c(OC)cc1NC(=O)Cc1ccc(OCc2c(C)noc2C)cc1	1.0	x
CCOC(=O)c1sc(=N)n(-c2ccc(OC)cc2)c1C	4.0	0.218
CCc1ccc(-c2cc(C)no2)cc1S(=O)(=O)N(C)C1CCCCC1	1.9	x
CCOC(=O)c1cc(-c2ccco2)nc2c1c(C)nn2-c1ccccc1	-0.4	x
O=C(NC1CCCc2ccccc21)c1ccc(S(=O)(=O)NCc2ccco2)cc1 (configuration not stated)	0.7	x
CNc1cc(F)nc(F)n1	-0.8	0.825
CC(C)(C)c1cc(CCC#N)cc(C(C)(C)C)c1O	1.2	0.347
CSCc1cc(=O)[nH]c(C)n1	x	-0.916
CN(c1ccc(C(=O)Cn2nc(C(=O)O)c3ccccc3c2=O)cc1)S(C)(=O)=O	0.2	x
CCCC(C(=O)NC1CCCC1)N(C(=O)Cn1nnc(-c2ccc(C)o2)n1)c1ccccc1 (configuration not stated)	-0.1	0.176
Cc1cc(-c2ccccc2)nc(SC(C)C(=O)N(C)C)n1 (configuration not stated)	-0.3	x
COc1ccc(C)cc1-n1c(C)nc2cc(C(=O)NCC(OC)OC)ccc21	-0.5	-0.044

# 4 entries out of the list, ordered by number of heavy atoms, descending.
molecule	BasE inh	KSHV LANA nucl
O=C(NC1CCCc2ccccc21)c1ccc(S(=O)(=O)NCc2ccco2)cc1 (configuration not stated)	0.7	x
O=C(OCc1nc2ccccc2s1)c1n[nH]c(=O)c2ccccc12	3.4	x
Cc1cc(-c2ccccc2)nc(SC(C)C(=O)N(C)C)n1 (configuration not stated)	-0.3	x
CC(C)CCSc1nc(N)c(C#N)cc1C#N	-2.2	-0.657

# More compounds:
molecule	BasE inh	KSHV LANA nucl
CC1Cc2ccccc2N1S(=O)(=O)c1cccc(C(=O)NCCCn2ccnc2)c1 (configuration not stated)	0.7	x
O=c1[nH]ncc(Nc2ccc(F)cc2)c1Cl	-3.6	x
Cc1c(C(=O)Nc2ccccc2Cl)oc2ccc(S(=O)(=O)N3CCOCC3)cc12	1.3	-0.602
O=C(NCCCN1CCOCC1)c1cccc(S(=O)(=O)N2CCCC2)c1	1.0	x
CCn1cc(NC(=O)Nc2ccccc2C(=O)OC)c(C(N)=O)n1	3.6	-0.226
O=C(NCc1ccccc1)C1CCCN1S(=O)(=O)c1ccc(Cl)cc1 (configuration not stated)	-0.5	-0.704
Cn1c(SC2CCCCC2=O)nnc1-c1ccncc1 (configuration not stated)	3.8	x
COc1ccc(-c2nnc(C3CCN(S(=O)(=O)c4cc(Br)cc5c4N(C(C)=O)CC5)CC3)o2)cc1	1.6	-0.038
O=C(Nc1cccc(-n2cnnn2)c1)c1ccccc1	4.3	-0.512
S=c1nc[nH]c2c1sc1ncccc12	6.9	0.797
Cc1ccc(CN(C)CC(=O)NC(C)c2ccccc2)cc1 (configuration not stated)	1.3	x
CCCCN(C)c1ncnc2onc(-c3ccc(Cl)cc3)c12	-1.3	1.45
CCn1cnc2ccccc21	1.3	x
CC(C)c1ccc(-c2nnn(CC(N)=O)n2)cc1	-0.6	-0.136
COc1cccc(CC(=O)N(Cc2ccccc2)Cc2ccco2)c1	1.3	x
CC(=O)Nc1ccc(SCc2nc3ccccc3c(=O)n2CC#N)cc1	0.3	x
Cc1cccc(N2CCC(N=CN(CCO)CCO)=N2)c1	-2.3	x
CCOC(=O)C1SC(c2ccccc2)C(C#N)C1(O)c1ccccc1 (configuration not stated)	-2.5	2.62
COc1ccc(CC2=C(C)C(=O)N(c3ccc(OC)cc3)C2=O)cc1	0.5	0.352
OCc1ccccc1NC(=S)NCc1ccccc1	-1.1	x

# Next compounds.
molecule	BasE inh	KSHV LANA nucl
Nc1c(-c2ccccc2)cnn1C1CCS(=O)(=O)C1 (configuration not stated)	x	-1.02
C=CCNC(=O)c1ccc(N2C(=O)c3ccccc3C2=O)cc1	2.4	0.0385
O=C(Nc1ccccc1)c1ccc(-c2nc3ccccc3s2)s1	-2.3	x
Cc1nc(SC(C)C(=O)NCc2ccc3c(c2)OCO3)nc(C)c1C (configuration not stated)	-1.7	x
CCOC(=O)Nc1ccc2c(c1)Nc1ccccc1S2	-0.1	-0.574
NC(=O)Cn1nnc2ccccc2c1=O	5.9	x
CCOc1cc(NS(=O)(=O)c2ccc(OC)cc2)c(OCC)cc1NC(=O)CC	-2.4	0.168
O=C(CCn1nc(-c2ccccc2)c2ccccc2c1=O)N1CCCCC1	0.4	0.479
Cc1ccc(C(=O)N(C)CC(=O)Nc2ccc(F)c(F)c2F)o1	-3.3	x
CC1=CCC(C(=O)Nc2nccs2)C(C(=O)Nc2nccs2)C1 (configuration not stated)	1.0	0.208
c1csc(C2SCCS2)c1	-0.8	x
COc1ccc(-n2nc(C)cc2N)cc1	-0.8	0.596
Cc1cc(=O)[nH]c(N/N=C/C2CC=CCC2)n1 (configuration not stated)	0.0	x
CC1(C)OCC(COC(=O)/C=C/c2ccc(F)cc2)O1 (configuration not stated)	-0.1	x
O/N=C/c1cc[n+](C/C=C\c2ccccc2)cc1	-2.4	x
CCN(CC)C(=O)Cn1nnc(-c2ccccc2)n1	1.1	-0.291
COc1ccc(Nc2c(-c3cccc(O)c3)nc3ncccn23)cc1	-0.2	-0.0195
Cc1coc(NC(=O)CSc2nc(-c3ccc4c(c3)OCO4)cc(C(F)(F)F)c2C#N)n1	-3.6	1.57
OCC1CCCN(Cc2ccc(F)cc2)C1 (configuration not stated)	-1.4	-0.58
Cc1cccc(CSc2ccc(-c3ccco3)nn2)c1	0.8	-0.0205
CN(C)[C@@H]1C(=O)C(C(=O)NCN2CCCC2)=C(O)[C@@]2(O)C(=O)C3=C(O)c4c(O)cccc4[C@@](C)(O)C3CC12 (some centres not stated)	4.2	1.92&-0.621
